Sfp PPTase inh: Sfp phosphopantetheinyl transferase inhibition; 3.5% of 310,000 active; Biochemical Sfp PPTase activity, qHTS; Q9F4F7; Potency, µM, without a hit: max response, negative = inhibition, actives largely listed as inhibitors; AID 1490; active = well fitted inhibition curve with a large enough effect; inconclusive = small, poorly fitted or top-dose-only effect, or another doubt; inactive = no such curve, though single readings can be large or run the other way;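 note: the enzyme is Sfp with the accession as filed and its product quenches rhodamine fluorescence; potency is the fitted concentration of half-maximal effect; 0% = enzyme reaction without inhibitor and -100% = no enzyme wells; top concentration of the series not given in the record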
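Buffer: 50 mM Hepes-Na pH 7.6, 10 mM MgCl2, 0.01% Nonidet P-40, 0.01% BSA. Enzyme 15 nM, pre-exposed to compound 15 min; substrates then added and fluorescence change tracked over 30 min.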
Menin MLL FP FL: menin-MLL binding inhibition, fluorescein peptide; 290,000 tested, under 10 active; Fluorescence polarization, fluorescein-MLL peptide displacement from menin; AID 1766; FP activity change, % at 61.4 µM; inconclusive = falling polarisation curve, or a change in total fluorescence; inactive = total fluorescence flat and polarisation flat or rising; no compound was filed as active; the % refers to the polarisation; negative = inhibition;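 note: % of control where 0% means no effect; inhibitors lower the polarisation; unlabelled MLL peptide was the positive control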
PINK1 modulator: modulators of PINK1 expression; PINK1 immunofluorescence, high-content cytometry, 24 h; Potency, µM (titrated, usually from 76.6 µM), for inactives: at the top dose activation (PINK1 increase), actives largely listed as activators; 0.2% of 410,000 active; AID 624263; active = well fitted activation curve with a large enough effect; inconclusive = small, poorly fitted or top-dose-only effect; inactive = flat fitted curve, though single readings scatter; cell line not stated here;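 note: potency is the fitted concentration of half-maximal effect; % of control where 0% means no effect; nearly all actives have a fitted effect of over 65% in size; a mitochondrial uncoupler was the plate control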
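Fluorescence from anti-PINK1 antibody, together with nuclear and cell stains, was scanned on a laser-scanning cytometer. Before staining, stable-line cells were incubated 24 hours with compounds at 5 concentrations; primary antibody 12 h at 10 degrees C.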
TRPML1 blocker: inhibitors of human TRPML1 channel; TRPML1-inducible cells, Ca2+ dye fluorescence, FDSS; active compounds read low; inhibition of EC80 agonist-evoked calcium signal; activity change, negative = inhibition, % (no concentration beside the values); 0.02% of 390,000 active; in the data active means activity change below about -50%; inconclusive means about -30% to -50%; inactive means above about -30%;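 note: stimulus is agonist 54-4 at its EC80 concentration; % is set by controls: 0 for no effect and ±100 for the full control effect; compound concentration not given in the record; the text of the record puts the active cut at -80%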
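Tet-induced TRPML1-DL cells loaded with Ca8 no-wash calcium dye were read kinetically on FDSS. Compound addition was followed by EC80 agonist 54-4 (4 uM final); inhibition was read over 110 s.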
ClpP mod: qHTS Assay for Activators of ClpP; ATP-dependent Clp protease proteolytic subunit (Bacillus subtilis (strain 168)), P80244; purified B. subtilis ClpP, FRET peptide cleavage, 20 min; Potency, µM (highest dose often 57.5 µM), inactives show at the top dose activity change, negative = active; 1.9% of 340,000 active; AID 651965, 2013; active = well fitted falling curve with a large enough effect; inconclusive = small, poorly fitted or top-dose-only effect; inactive = no such curve, though single readings can be large or run the other way; note: potency is the fitted concentration of half-maximal effect; the source files actives as falling curves though it sought activators and does not explain the sign; nearly all actives have a fitted effect of over 65% in size; many hits overshoot -100%
Target sequence (P80244 whole entry, looked up): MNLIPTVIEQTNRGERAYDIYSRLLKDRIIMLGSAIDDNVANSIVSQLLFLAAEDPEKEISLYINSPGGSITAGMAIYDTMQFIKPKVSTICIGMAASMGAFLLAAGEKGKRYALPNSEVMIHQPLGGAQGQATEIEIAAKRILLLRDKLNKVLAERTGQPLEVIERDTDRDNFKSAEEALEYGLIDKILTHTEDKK
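Buffer: 100 mM Tris/HCl pH8, 100 mM KCl, 0.05% low protease BSA, 2.5% glycerol, 0.01% Tween-20. ClpP 10 microg/mL final; 20 min RT; delta FRET normalized to ADEP and DMSO controls.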
TRPV1 potentiator: potentiators of human vanilloid receptor 1 (TRPV1); Q8NER1; TRPV1-expressing cells, Fluo-8 calcium influx, capsaicin EC20 potentiation; host cell line not named in the record; control for the full effect not named in the record; potentiation, % at 8.33 µM; 0.02% of 320,000 active; active means potentiation above 80%; inconclusive means 30% to 80%; inactive means below 30%; note: 0% is about no effect
Target sequence (Q8NER1 whole entry, looked up): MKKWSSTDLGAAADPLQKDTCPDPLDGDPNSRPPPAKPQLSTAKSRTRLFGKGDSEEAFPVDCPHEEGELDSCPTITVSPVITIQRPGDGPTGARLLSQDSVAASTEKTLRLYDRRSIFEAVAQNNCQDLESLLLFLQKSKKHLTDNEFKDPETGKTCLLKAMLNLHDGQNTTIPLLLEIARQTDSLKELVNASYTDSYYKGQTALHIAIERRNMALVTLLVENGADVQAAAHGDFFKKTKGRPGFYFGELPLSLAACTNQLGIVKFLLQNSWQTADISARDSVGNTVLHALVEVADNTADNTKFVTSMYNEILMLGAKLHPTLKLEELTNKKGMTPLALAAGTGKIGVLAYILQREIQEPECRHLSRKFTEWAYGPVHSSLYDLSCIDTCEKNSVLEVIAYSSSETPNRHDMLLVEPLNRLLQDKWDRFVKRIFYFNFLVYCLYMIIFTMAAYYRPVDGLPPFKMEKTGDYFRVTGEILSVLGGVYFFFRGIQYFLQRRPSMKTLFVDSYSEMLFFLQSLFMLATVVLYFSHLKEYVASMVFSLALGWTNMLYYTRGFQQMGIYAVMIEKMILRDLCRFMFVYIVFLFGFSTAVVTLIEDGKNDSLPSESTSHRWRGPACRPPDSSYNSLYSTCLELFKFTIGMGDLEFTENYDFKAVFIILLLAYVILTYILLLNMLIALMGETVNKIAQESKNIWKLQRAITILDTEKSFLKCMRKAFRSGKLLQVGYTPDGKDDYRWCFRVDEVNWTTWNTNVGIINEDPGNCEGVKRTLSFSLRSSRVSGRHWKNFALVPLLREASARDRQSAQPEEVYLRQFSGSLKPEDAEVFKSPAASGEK
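Cells expressing TRPV1 were dye-loaded with Fluo-8 and read kinetically: 10 s baseline, 3 min after compound (agonist portion), then 2 min after EC20 capsaicin (allosteric enhancer portion). Calcium-bound dye fluorescence at 480/520 nm.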
TRPML1 ag: agonists of human TRPML1 channel | 0.12% of 410,000 active | activation, % (concentration not given with the values) | TRPML1-expressing cells, Ca2+ dye fluorescence, FDSS; host cell line not named in the record; reference of the full effect not given here | Q9GZU1; in the data active = activation above about 50%; inconclusive = about 30% to 50%; inactive = below about 30%; note: 0% is about no effect; the text of the record puts the active cut at 80%
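In this qHTS format, compounds were pin-transferred onto Ca8-dye-loaded TRPML1-DL cells induced with Tet overnight, and intracellular Ca2+ fluorescence was recorded kinetically for 110 s after a 10 s baseline. A subsequent 4uM final 54-4 (EC80) addition followed by a second 110 s read served as the antagonist phase.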
* hit, by the source's call; ? = inconclusive; . = no result given; & = joins results of further samples; ! = repeats disagree; [ ] = remark or other dose. These rows are one share of the data, so the mix of outcomes need not match the whole.

SMILES	Sfp PPTase inh	Menin MLL FP FL	PINK1 modulator	TRPML1 blocker	ClpP mod	TRPV1 potentiator	TRPML1 ag
Cc1nnc(SCc2nc3ccccc3c(=O)n2-c2ccccc2Cl)n1N	3%	3.3	2.5%[38.3 µM]	2	0.4%	16	0.4
CCOC(=O)Cn1cc(C(=O)c2ccccc2)c2ccccc21	-5%	2.3	1.0%	.	-0.1%	8	.
c1ccc(N2CCC3(CCNCC3)CC2)cc1	?	1.1	0.1%	.	.	.	.
O=C(Nc1ccc(C(F)(F)F)cc1)OC1CN2CCC1CC2 (stereo not drawn)	13%	4.8	1.0%	-9	.	12	-0.1
COc1cc(CCN)ccc1O	28%	1.6	0.8%	-6	-0.2%	6	-0.3
COc1ccc(C(=O)C2CCCN(CCO)C2)c(C)c1 (stereo not drawn)	-2%	-5.4	-1.0%	-9	.	1	0.5
N=C1c2ccccc2CN1c1ccc(F)c([N+](=O)[O-])c1	18%	-0.7	-0.3%	-2	.	6	0.2
Cc1nn(Cc2ccccc2)c(Cl)c1C(=O)Nc1ccc(OC(F)(F)F)cc1	7%	5.7	7.1%	14	7.9%	-9	3.7
O=C1NC(=O)C(=Cc2ccc(-c3ccc(F)cc3O)o2)C(=O)N1	50µM*	3.2	7.1%	-11	4.0%	-3	-0.1
CCN(CC)C(=O)c1ccc(NC(=O)COc2ccc(-c3nn(C)c(=O)c4ccccc34)cc2)cc1	7%	-9.0	2.2%&1.8%	8&2	-7.7%	?	1.3&2.6
C=CCn1cc(C=C2C(=O)NC(=O)NC2=O)c2ccccc21	-6%	?	-0.6%	-6	.	-12	0.4
Oc1ccc(Cl)cc1CN1CCN(Cc2ccccc2)CC1	-6%	1.6	-2.0%	-3	-0.7%	17	2.0
CC12CC[C@H]3[C@@H](CCC4(O)C[C@H](O)CCC34/C=N/NC(=O)Cc3ccccc3)C1(O)CCC2C1=CC(=O)OC1 (stereo partly drawn)	20%	3.0	9.6%	-2	.	2	0.4
CN1C(=O)C(=Cc2ccc(-c3cccc(Cl)c3)o2)C(=O)N(C)C1=O	?	3.7	.	.	.	13	.
C=CCn1c(O)c(/C(CC)=N/NC(=S)Nc2ccccc2)c(=O)[nH]c1=O	22µM*	5.0	-0.5%	3	.	.	0.2
COc1cccc(NP(=O)(Oc2ccccc2)Oc2ccccc2)c1	-1%	4.0	18%	16	-1.9%	-10	3.6
CC(C)CN1Cc2cc(-c3ccccc3)ccc2-n2nncc2C1	.	.	-0.6%	.	5.7%	.	-0.3
CC(C)(C)c1ccc(CN2C(=O)CN=C(c3ccccc3)c3ccccc32)cc1	-4%	1.4	-4.0%[38.3 µM]	15	-1.9%	.	-0.3
COc1ccc(C2N3CC(C)(C)CN23)cc1 (stereo not drawn)	1%	1.2	.	.	.	6	.
COc1ccc(CCNCc2ccncc2)cc1	-2%	4.7	0.6%	70	-3.0%	3	-0.7
O=C(Cn1ncc2ccccc21)N1CCC2(CC1)OCCO2	-14%	7.3	.	-2	-0.2%	7	-0.3
CC[N+](C)(CC)CCCCOc1ccc2c(c1)C(=O)c1cc(OCCCC[N+](C)(CC)CC)ccc1-2	14µM*	-2.9	-0.8%	?	0.8%	-3	0.4
CCN1C(=O)/C(=C/c2ccc3c(c2)CCN3CCCCl)C(=O)NC1=S	45µM*	24	0.3%	9	-1.4%	15	2.0
O=C(CCC(=O)N1CCC2(CC1)OCCO2)Nc1nnc(C2CCCCC2)s1	13%	0.1	1.4%	-5	.	-2	-0.4
CC(O)C1C=CC=CC(=O)OC2CC3OC4C5OC5(C)CCC4(COC(=O)C4OC4(C)C(O)CO1)C2(C)C31CO1 (stereo not drawn)	.	.	-6.6%	3	0.0%	.	0.3
CC(C)CNC(=O)c1c(N)n(Cc2ccc3c(c2)OCO3)c2nc3ccccc3nc12	-20%	6.3	-1.8%	29	14µM*	?	-0.4
C=CCn1c(O)c(C(CC)=Nc2ccc(N(C)C)cc2)c(=O)[nH]c1=O	50µM*	4.1	1.5%	4	.	-26	1.1
COc1ccc(CCNCc2ccc(F)cc2)cc1OC	1%	-0.2	-1.4%	-9	0.2%	0	-0.1
Cc1cccc(OP(=O)(NCc2ccccc2)Oc2cccc(C)c2)c1	-4%	4.6	7.9%	64	1.5%	-7	12
O=C(NC1CC1)C1CSC(c2cccnc2)=N1 (stereo not drawn)	5%	-0.6	3.3%[38.3 µM]	-3	-0.8%	-1	0.3
O=C(C1CCC(=O)N1C1CCCC1)N1CCC2(CC1)OCCO2 (stereo not drawn)	12%	0.2	11%[38.3 µM]	7	-0.4%	6	0.4
CC1=NCCc2c1[nH]c1cc(O)ccc21	79µM*!	?	?	11	5.6%	-5	?
C[C@@H]1C[C@H]2OC(=O)C3(CO3)[C@H]2[C@H](O)[C@]2(C)C(=O)C3OC3[C@@H]12 (stereo partly drawn)	7%	-2.3	.	.	.	13	.
c1ccc(C2(NC3=NCCO3)CCCCC2)cc1	.	.	1.0%	16	-0.9%	.	0.1
COc1cccc(NC2=NCCCS2)c1	19%	0.3	-1.5%	-3	1.6%	-8	0.5
CN1CCC(OC(=O)Cc2ccccc2)CC1	15%	-1.7	1.5%	-18	1.3%	-9	-0.2
CN(C)C(=O)Oc1cccc(OCc2n(C)c3ccccc3[n+]2C)c1	6%	-4.4	0.5%	-20	-1.9%	16	-0.5
O=C(COc1ccc2ccc(=O)oc2c1)N1C[C@H]2C[C@@H](C1)c1cccc(=O)n1C2	3%	-0.7	-0.8%	.	5.0%	-9	.
Cc1cccc(C)c1-n1nnnc1C(c1ccnc2ccccc12)N1CCC2(CC1)C(=O)NCN2c1ccccc1 (stereo not drawn)	.	.	-0.1%	.	-0.6%	.	-0.7
CCOc1ccc(CN(CCc2ccc3c(c2)OCO3)Cc2ccc(CC)cc2)cc1	.	.	3.8%	-12	0.0%	.	0.4
O=C(COC(=O)Cc1ccccc1)NCCNC(=O)COC(=O)Cc1ccccc1	.	.	0.6%	20	.	-1	-0.3
CNC(=O)Oc1ccc(C(=O)N2c3ccccc3NC(=O)C2C)cc1 (stereo not drawn)	6%	2.3	0.4%	-11	-1.8%	-2	1.0
CCOC(=O)[C@]12Cc3cc(OC)ccc3[C@H]1N(CC(=O)OC)C(=O)c1cc(OC)ccc12	.	.	-0.9%	.	-2.3%	.	-0.5
CC(Cc1cnccn1)NCc1c(C(=O)N2CCCCCCC2)nc2ccc(Cl)cn12 (stereo not drawn)	5%	0.6	-1.3%	6	-4.4%	-5	1.0
OC(c1ccccc1)(c1ccc(Cl)cc1)C1CN2CCC1CC2 (stereo not drawn)	7%	6.0	-1.3%	0	-1.8%	-3	4.7
Cc1nn(Cc2ccccc2)c(Cl)c1C(=O)OCC(=O)Nc1cccc2ccccc12	8%	2.7	?	1	-5.3%	-1	0.3
CN1C(=O)C(=Cc2ccc(Sc3ccccc3)o2)C(=O)N(C)C1=S	.	.	-0.2%	21	.	.	0.8
O=C(c1cc2cc(F)ccc2[nH]1)N1CCC2(CC1)OCCO2	11%	.	-0.1%	17	-18%	27	0.2
CCOc1ccc(Cl)cc1CNCCc1ccc(F)cc1	24%	-3.4	4.4%	16	.	?	0.1
CCC1(c2ccccc2)C(=O)N(C)C(=O)N(C)C1=O	10%	0.7	-0.8%[38.3 µM]	10	0.0%	4	-0.3
CC/C(CC(c1ccccc1)c1c(O)c2ccccc2oc1=O)=N\NC(N)=S (stereo not drawn)	?	3.6	1.5%	-9	?	18	-0.3
c1ccc(N2[C@@H]3CC[C@H]2c2ccccc2C3)cc1	.	.	5.9%	8	-3.8%	.	3.6
O=C(NC1CC2CCCC(C1)N2)c1ccccc1 (stereo not drawn)	-10%	-0.3	0.4%	-8	.	-2	-0.4
COc1ccc(C2C3C=CC(C3)C2C(=O)O)cc1 (stereo not drawn)	.	.	-0.2%	31	-1.4%	.	0.3
Cc1ccc(Cn2cccc(C(=O)Nc3nc4ccc(C)cc4s3)c2=O)cc1	.	.	0.5%	12	-1.2%	.	-0.3
O=c1c2ccccc2nc(/C=C/c2ccc(F)cc2)n1-c1ccccn1	9%	-0.8	4.3%	0	.	3	0.3
COc1ccc(C(=O)C23CN4CN(CN(C4)C2)C3)cc1	16%	-1.7	-1.3%	6	-0.2%	-1	0.1
CCn1c(O)c(C=Nc2ccc(S(N)(=O)=O)cc2)c(=O)[nH]c1=S	-14%	30	1.9%	?	-1.6%	-3	0.2
Cn1cc(C(=O)NP(=O)(N2CCOCC2)N2CCOCC2)c2ccccc21	2%	2.2	2.3%	25	.	17	-0.1
O=c1[nH]c(O)c(C=NCCc2ccccc2)c(=O)[nH]1	16%	0.1	1.5%	-3	0.6%	5	0.9

Next section:
SMILES	Sfp PPTase inh	Menin MLL FP FL	PINK1 modulator	TRPML1 blocker	ClpP mod	TRPV1 potentiator	TRPML1 ag
Cc1ccc(N2C(=O)/C(=C/c3ccc(CN(CCC#N)S(C)(=O)=O)o3)C(=O)NC2=S)cc1	20µM*	?	1.0%	2	-3.5%	15	-0.4
COc1ccc(-c2nn(CCC#N)cc2C(=O)NCc2ccccc2)cc1OC	30%	-4.3	1.9%	.	0.2%	4	.
CN1CCN2c3ccc(N)cc3CC3(C(=O)NC(=O)NC3=O)C2C1 (stereo not drawn)	22µM*	-0.8	-2.7%	7	.	0	0.0
C[n+]1c2ccccc2nc2ccc(NCCO)cc21	79µM*	?	-1.8%	-4	.	16	0.9
O=C(CCN1CCCCC1)Nc1ccc(Cl)cc1C(=O)c1ccccc1	7%	-0.9	-2.1%	-12	0.1%	2	0.6
O=C(Cc1ccccc1)Oc1ccccc1N1C(=O)CCC1=O	-3%	-1.0	0.3%	2	-4.5%	30	0.0
COc1ccc(-n2c(O)c(C=Nc3c(C)n(C)n(-c4ccccc4)c3=O)c(=O)[nH]c2=O)cc1	15%	7.2	1.8%	-1	-4.2%	-10	0.5
COC(=O)C1=C(c2c(C)noc2C)C[C@@H]2CC[C@H]1N2C(=O)NCCNC(C)=O	.	.	0.5%	-11	1.3%	-12	-0.9
COc1ccc(C=C2C(=O)NC(=S)NC2=O)cc1	.	.	-1.0%	7	-2.3%	.	0.3
Fc1ccc(CNCCc2ccc3c(c2)OCO3)cc1	-4%	-0.2	0.8%	19	0.6%	30	-0.6

Screening results: PubChem BioAssay, National Center for Advancing Translational Sciences (NCATS)
